Source: PubChem
Cruzain Triton = inhibitors of Trypanosoma cruzi cruzain with detergent. P25779. purified cruzain, Z-FR-AMC fluorescence, 0.01% Triton. Potency, µM, without a hit: max response, negative = inhibition, usual class: inhibitors. 200,000 compounds, 0.43% hits. AID 1478; active = well fitted curve in the direction sought with a large enough effect; inconclusive = small, poorly fitted or top-dose-only effect, or another doubt; inactive = no such curve, though single readings can be large; an effect the other way counts as inactive or inconclusive;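 note: plate controls were neutral wells for no effect and buffer without enzyme for full effect; nearly all actives have a fitted effect of over 40% in size; top concentration of the series not given in the record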
Target sequence (P25779 123-467 limits assumed): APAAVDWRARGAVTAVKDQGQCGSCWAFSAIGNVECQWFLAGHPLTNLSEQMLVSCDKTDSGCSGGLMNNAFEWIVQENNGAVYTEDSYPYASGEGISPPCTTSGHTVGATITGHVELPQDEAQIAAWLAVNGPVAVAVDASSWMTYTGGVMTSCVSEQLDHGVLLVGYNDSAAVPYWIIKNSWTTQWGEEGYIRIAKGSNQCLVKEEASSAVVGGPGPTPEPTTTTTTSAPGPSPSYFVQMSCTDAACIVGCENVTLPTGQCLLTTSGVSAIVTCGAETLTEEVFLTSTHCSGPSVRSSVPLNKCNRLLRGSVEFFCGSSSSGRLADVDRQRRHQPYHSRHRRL
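Detergent-containing arm of a paired screen for aggregation-based inhibition: 0.01% Triton X-100 present. Cruzain at 1.5 nM cleaved 2 uM Z-FR-AMC at pH 5.5 with 5 mM DTT; AMC fluorescence gain over 60 s measured activity.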
Lassa entry inh = blocks Lassa virus binding to or entry into cells; Lassa virus pseudotype entry inhibition, cell reporter; control for the full effect not named in the record; Potency, µM (series often up to 37.9 µM), for inactives: at the highest dose activity change, negative = inhibition, actives largely listed as inhibitors; 300,000 compounds, 1.2% hits; AID 540256; active means well fitted inhibition curve with a large enough effect; inconclusive means small, poorly fitted or top-dose-only effect, or effect the other way; inactive means flat fitted curve, though single readings scatter; tested in HEK293 cells; note: % is set by controls: 0 for no effect and ±100 for the full control effect; nearly all actives have a fitted effect of over 50% in size; luciferase read-out
Marburg entry inh = Marburg virus entry inhibition | Potency, µM (series often up to 37.8 µM), for the others: at the highest dose activity change, negative = inhibition, hits mostly inhibitors | AID 540276 | 300,000 compounds, 1.8% hits | Marburg virus pseudotyped entry inhibition, cell reporter; control for the full effect not named in the record; about a third of the inactives were read at about 46 µM; active = well fitted inhibition curve with a large enough effect; inconclusive = small, poorly fitted or top-dose-only effect, or effect the other way; inactive = flat fitted curve, though single readings scatter; tested in HEK293 cells; about a fifth of its hits are not listed in these tables; note: % is set by controls: 0 for no effect and ±100 for the full control effect; luciferase read-out
NS1 function inh = blocks influenza NS1 protein function | S. cerevisiae slowed by influenza A NS1, growth recovery by OD600 | Potency, µM (highest dose often 46.1 µM), for the others: at the top dose activity, positive = more growth | 270,000 compounds, 0.4% hits | AID 2326; note: actives are rising curves; nearly all actives have a fitted effect of over 50% in size
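Recovery from NS1-induced slow growth read by OD600 in budding yeast switched to galactose assay medium (pH 6.0, -URA) at 1:100 dilution. Compound 23 nl per well; the matching strain lacking NS1 serves as control.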
SARS PLP yeast = blocks SARS-CoV papain-like protease in a yeast assay | 330,000 compounds, 0.19% hits | Potency, µM (top dose mostly 32.9 µM), for the others: at the top dose activity, positive = growth rescue | S. cerevisiae expressing SARS-CoV PLpro, growth rescue; control for the full effect not named in the record; note: 0% is about no effect; nearly all actives have a fitted effect of over 55% in size; growth read by luminescence after 48 h
2A StopGo = FMDV 2A StopGo reporter, luciferase signal | Potency, µM (titrated, usually from 57.9 µM), inactives show at the top dose signal change, negative = less light | 410,000 compounds, 1.2% hits | human cells with a luciferase reporter of 2A StopGo recoding; control for the full effect not named in the record; active = well fitted falling curve with a large enough effect; inconclusive = small, poorly fitted or top-dose-only effect; inactive = no such curve, though single readings can be large or run the other way; tested in HEK293T cells; note: % is set by controls: 0 for no effect and ±100 for the full control effect; nearly all actives have a fitted effect of over 45% in size; luciferase light after 4 h
RE007 growth inh = less growth of the S. pombe RE007 Vpr strain | S. pombe RE007 Vpr strain, BacTiter-Glo ATP luminescence, 24 h; control for the full effect not named in the record | Potency, µM (highest dose often 92.2 µM), without a hit: at the highest dose activity change, negative = less growth | 360,000 compounds, 0.21% hits | AID 651644; active = well fitted falling curve with a large enough effect; inconclusive = small, poorly fitted or top-dose-only effect; inactive = no such curve, though single readings can be large or run the other way;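 note: % is set by controls: 0 for no effect and ±100 for the full control effect; nearly all actives have a fitted effect of over 50% in size; the assay follows cell death caused by Vpr and the record does not say whether a fall means rescue or toxicity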
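Fission yeast RE007 carrying one integrated HIV-1 vpr copy, seeded at OD 0.01 in PMG+AL medium with 23 nL pinned compound. Grown 24 h at 30 degrees; viability read by BacTiter-Glo luminescence after 5 min.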
Cruzain inh noDet = cruzain (T. cruzi) inhibition without detergent. P25779. purified cruzain, Z-FR-AMC fluorescence, no detergent. Potency, µM, without a hit: max response, negative = inhibition, usual class: inhibitors. 200,000 compounds, 2.3% hits; active = well fitted curve in the direction sought with a large enough effect; inconclusive = small, poorly fitted or top-dose-only effect, or another doubt; inactive = no such curve, though single readings can be large; an effect the other way counts as inactive or inconclusive;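 note: plate controls were enzyme without inhibitor for no effect and buffer without enzyme for full effect; nearly all actives have a fitted effect of over 40% in size; top concentration of the series not given in the record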
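Purified cruzain at 1.5 nM, pre-incubated 15 min with compound at room temperature in 100 mM sodium acetate pH 5.5, 5 mM DTT, 0.00005% Triton X-100. Reaction started with 2 uM Z-FR-AMC; AMC fluorescence increase over 60 s gives rate.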
Starred values were filed as active, the others as inactive; ? = inconclusive; / = no result given; & = joins results of further samples; [ ] = dose if it differs, or a comment. Unless noted, calls come from the whole dose curve; as a rule, active means well fitted rising curve with a large enough effect; inconclusive means small, poorly fitted or top-dose-only effect; inactive means no such curve, though single readings can be large or run the other way. Potency is the fitted concentration of half-maximal effect.

entry	SMILES	RE007 growth inh	SARS PLP yeast	Cruzain inh noDet	Cruzain Triton	Lassa entry inh	2A StopGo	Marburg entry inh	NS1 function inh
1	CCc1nc(SCC(=O)NC2CCCC2)c2oc3ccccc3c2n1	0%	-4%	/	/	-13%[46.1 µM]	-26%	7%[46.1 µM]	-4%
2	O=C(OCCN1CCOCC1)C1(c2ccccc2)CCCCC1	-11%[18.4 µM]	/	6%&1%	-6.4%&6.9%	-26%	?	?	-19%
3	Cc1nn(C)c(C(=O)Nc2c(C)nn(Cc3c(F)c(F)c(F)c(F)c3F)c2C)c1Br	0%	-8%	/	/	10%[46.1 µM]	-19%	?	1%
4	O=C(O)/C=C/C(=O)N(CC1CCCO1)C1CC(=O)N(c2c(Cl)cccc2Cl)C1=O (stereo not given)	-14%	-1%	/	/	0%	-12%	?	0%
5	O=C(NC1CCCCC1)C(c1ccc(F)cc1)N(Cc1cccs1)C(=O)CN1C(=O)c2ccccc2S1(=O)=O (stereo not given)	4%	1%	1%	-1.7%	4%&2%	-15%	-7%&-4%	3%
6	O=C(O)c1ccc(Cl)c(S(=O)(=O)Nc2ccccc2C(=O)Nc2ccc(Cl)cc2)c1	9%	5%	/	/	-1%	-5%	0%[46.1 µM]	?
7	CN1C(=O)/C(=C/c2ccccc2OCc2cccc(F)c2)N(C)C1=S	-18%	0%	3%	8.2%	4%	?	-22%	10%
8	O=C(c1cccn2c(=O)c3ccc(Cl)cc3nc12)N1CCC2(CC1)OCCO2	-7%	-2%	-2%	-11%	/	0%	/	11%
9	CCOC(=O)CSc1nc(N)c(C#N)c(CC(C)C)c1C#N	4%	-3%	9%	-4.4%	0%	?	-6%	-10%
10	O=C1c2cccc3c(N4CCCCC4)ccc(c23)C(=O)N1c1ccc(O)cc1	-7%	-2%	/	/	-21%[46.1 µM]	12%	?	/
11	Cc1cc(=O)oc2c(CN3CCC(C)CC3)c(O)c(Cl)cc12	15%	-3%	?	?	15%	?	?	17%
12	COc1ccc2c(CC(=O)OCC(=O)N(C)c3c(N)n(Cc4ccccc4)c(=O)[nH]c3=O)coc2c1	7%	/	/	/	13%	-16%	8%	/
13	CCCCn1nnc(NC(=O)c2ccc(-c3cccc(Cl)c3)o2)n1	13%	-12%	8%	-8.3%	28%[14.3 µM]	0%	9%	-55%
14	Cc1cc(-c2nnc(SCC(=O)c3ccc(Cl)cc3)o2)no1	21%	-22%	25µM*	-4.1%	?	-15%	27%[46.1 µM]	16%
15	CCC(=O)OCc1c(C(F)(F)F)nn(C)c1Sc1ccc(Cl)cc1	10%[3.69 µM]	-1%	-9%	-2.5%	2%	-12%	-26%	-4%
16	Cc1ccsc1/C=C1\CCC(C2CCCC2)C1=O (stereo not given)	-16%	2%	/	/	?	-43%	7.9µM*	/
17	O=C(Nc1nc(-c2ccc(Cl)s2)cs1)c1ccco1	?	-3%	/	/	/	9%	?	/
18	Cc1nn(-c2ccccc2)c(-n2cccc2)c1C(=O)NCc1ccccc1Cl	/	/	-3%	-7.2%	-25%[46.1 µM]	?	?	/
19	Oc1ccc(C=NC2CCCCC2)cc1	17%	-7%	/	/	-5%	-1%	22%&22%	4%
20	COCCCn1c(=O)c2ccccc2n2c(=S)[nH]nc12	2%	0%	/	/	/	-12%	/	9%
21	CCOc1cccc2sc(N(CCCN(C)C)C(=O)c3ccc(C(=O)c4ccccc4)cc3)nc12	10%	-4%	/	/	?	-11%	?	-17%
22	CCN(CCCNS(=O)(=O)c1ccc2c(c1)oc(=O)n2C)c1cccc(C)c1	-3%	-15%	-4%	-4.1%	/	5%	/	?
23	COC(=O)Cc1c(C)c2c(OCc3nn[nH]n3)cc(C)cc2oc1=O	11%	-2%	-7%	-14%	-8%	-18%	-3%	?
24	CCOC(=O)c1cc(CC)sc1N1C(=O)CC(Sc2ccccc2C(=O)O)C1=O (stereo not given)	-23%	-4%	/	/	-1%[46.1 µM]	-9%	12%[46.1 µM]	/
25	CCCCn1c(=N)n(CCCOc2ccc(F)cc2)c2ccccc21	/	/	26%	-3.6%	?	?	10µM*	/
26	Cc1ccc(-n2ncc(C(=O)NC3CCCC3)c2C2CCN(C(=O)OC(C)(C)C)CC2)c(C)c1	/	/	27%	-7.3%	?	-19%	/	/
27	CCOC(=O)c1c[nH]c2c([N+](=O)[O-])cc(OC)cc2c1=O	-14%	/	/	/	4%[46.1 µM]	0%	0%[46.1 µM]	/
28	Cc1nc2c(C(F)(F)F)cccc2c2c1CCS2	0%	0%	/	/	-27%	-21%	13%[46.1 µM]	/
29	O=C1NC(c2ccccc2Cl)Nc2ccccc21 (stereo not given)	6%	5%	3%	-0.8%	-3%	-23%	?	1%
30	O=S(=O)(c1ccc2c(c1)OCCCO2)N1CCNCC1	11%	4%	2%	3.6%	6%	-4%	-1%	2%
31	O=C(Nc1ncccc1Cl)C(Sc1ccccc1)c1ccccc1 (stereo not given)	-6%	2%	3%	-4.7%	4%	-15%	1%	-1%
32	C/C(=N/OCO/N=C(\C)c1ccccc1F)c1ccccc1F	5%	-11%	-6%	-6.2%	6%	-4%	19%	0%
33	CCOC(=O)CSc1nnc(C)n1N	-15%	2%	-1%	4.3%	-1%	-15%	19%	-3%
34	C/C(=N\NC(=O)c1ccccc1[N+](=O)[O-])c1c(O)cc(C)oc1=O	1%	-19%	1%	-6.2%	?	33%[activator]	1%	3%
35	CCOc1ccccc1NC(=O)C(NCCc1ccc(OC)cc1)c1ccccc1 (stereo not given)	-14%	22%	/	/	/	?	/	21%
36	CCCn1c(SCC(=O)N2CCCc3ccccc32)nnc1-c1ccccn1	10%	-5%	3%	-0.1%	1%	-12%	17%[46.1 µM]	-15%
37	COc1ccc(CC(CC(=O)O)C(=O)Nc2ccc(Cl)c(Cl)c2)cc1 (stereo not given)	-9%	-8%	/	/	/	-10%	/	?
38	CCOc1ccccc1C1C(C(N)=O)=C(C)Nc2nc(-c3cccc(C)c3)nn21 (stereo not given)	-8%	-20%	?	0.1%	-3%	-8%	-8%	-15%
39	Cc1ccc(NC(=O)CSc2nnc(-c3ccccc3C)o2)cc1C	10%	-3%	4%	-2.5%	?	-15%	8%	-5%
40	Cc1ccsc1/C=C1/NC(=O)N(Cc2ccc(F)cc2)C1=O	-4%	-1%	/	/	?	-8%	-18%[46.1 µM]	1%
41	CC(C)OCCCNC(=O)C(=O)N/N=C/c1ccc(OCc2ccccc2)cc1	-1%	1%	/	/	-1%	-5%	2%	-3%
42	FC(F)(F)c1nnc2ccc(NCc3ccccc3)nn12	-11%	-5%	/	/	-23%[46.1 µM]	-13%	4%[46.1 µM]	/
43	COc1ccc(NC(=O)CSc2ccccn2)cc1OC	2%	/	7%	-1.3%	1%	31%[activator]	-4%	5%
44	COc1ccc(Cl)cc1C(=O)NNC(=O)CCNS(=O)(=O)c1ccccc1	-9%	-1%	/	/	11%[46.1 µM]	7%	-26%[46.1 µM]	/
45	CC1CCCCC12NC(=O)N(CC(=O)NCCc1ccccc1)C2=O (stereo not given)	24%	3%	/	/	4%[46.1 µM]	24%	0%[46.1 µM]	/
46	COc1ccc(C(=O)NNC(=O)Cc2nc3nc(C)cc(C)n3n2)cc1	-11%	1%	/	/	/	-18%	/	?
47	O=C(NCC1CCCO1)c1ccc(CNS(=O)(=O)c2ccc(F)c(Cl)c2)cc1 (stereo not given)	6%	-8%	/	/	6%	-5%	-13%	-2%
48	O=C(O)CCn1c2c(c3ccccc31)CCCC2	-6%	-10%	-7%	-4.4%	-4%	-17%	23%	-116%
49	C/C(=C\C(=O)C(F)(F)F)Nc1cc(C)cc(C)c1	-16%	0%	4%	1.5%	8%	-17%	24%	-4%
50	COc1ccccc1CN1C(=O)CCC1(C)C(=O)NC1CCCCCC1 (stereo not given)	0%	0%	8%	0.8%	-19%	-19%	-6%	-11%

(continued)
entry	SMILES	RE007 growth inh	SARS PLP yeast	Cruzain inh noDet	Cruzain Triton	Lassa entry inh	2A StopGo	Marburg entry inh	NS1 function inh
51	Cc1ccc(CNC(=O)C(=O)NCC(c2ccc3c(c2)OCO3)N2CCOCC2)cc1 (stereo not given)	/	/	7%	-1.7%	-26%[46.1 µM]	-13%	/	/
52	CCOC(=O)c1c(C)[nH]c(C)c1S(=O)(=O)N1CCCC(C(=O)NCc2ccccc2Cl)C1 (stereo not given)	/	/	16%	-0.8%	6%[46.1 µM]	50%[activator]	/	/
53	CCC1(CC)C(=O)NC(=Nc2cccc(C(F)(F)F)c2)NC1=O	-3%	0%	0%	0.5%	11%	-15%	16%	-11%
54	COCCNC(=O)c1cc(-c2ccccn2)nc2ccc(S(=O)(=O)N3CCC(C)CC3)cc12	-5%	-1%	/	/	/	40%[activator]	/	-3%
55	COC(=O)CC(NC(=O)c1ccco1)c1ccc(C(C)C)cc1 (stereo not given)	32%	-10%	10%	-3.0%	-5%	0%	-1%[46.1 µM]	-2%
56	C[N+]1(CCNC(=O)/C=N/O)CCCCC1	-8%	4%	1%	4.8%	-14%	-2%	5%[46.1 µM]	4%
57	COc1ccc(NC(=O)COC(=O)c2ccc(-n3cnnn3)cc2)cc1Cl	1%	3%	/	/	25%	-7%	1%	/
58	CCOP(=O)(OCC)C(NC(=O)c1cccc(C)c1)C(Cl)(Cl)Cl (stereo not given)	1%	1%	/	/	/	-12%	/	6%
59	Cc1nnc(SCc2nc3sc4c(c3c(=O)[nH]2)CCCC4)n(N)c1=O	-8%	1%	/	/	-13%	-21%	-6%[46.1 µM]	8%
60	CC(C)(C)Nc1nc(Cl)nc(NCCN2CCOCC2)n1	14%	0%	/	/	/	-15%	/	3%
61	C=CCN=C1SCC(=O)N1S(=O)(=O)c1ccccc1	-4%	1%	-2%	6.3%	8%	-1%	5%	12%
62	COc1ccc(-c2nc(CN3CCN(c4ncnc5ccccc45)CC3)c(C)o2)c(OC)c1	3%	-1%	/	/	?	20µM*	15µM*	-1%
